Assay outcomes as filed in PubChem BioAssay.
FGF22 binding: shifts melting point of recombinant human FGF22; Q9HCT0; recombinant FGF22 thermal shift, SYPRO orange fluorescence; percent of sucrose octasulfate shift, DMSO zero; calls only at 9.99 µM; 1.5% of 340,000 active; AID 651658;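 active = melting point raised past a set limit in the mean and every replicate; inconclusive = no clear call; three in four hits are not shown here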
Target sequence (Q9HCT0 whole entry, looked up): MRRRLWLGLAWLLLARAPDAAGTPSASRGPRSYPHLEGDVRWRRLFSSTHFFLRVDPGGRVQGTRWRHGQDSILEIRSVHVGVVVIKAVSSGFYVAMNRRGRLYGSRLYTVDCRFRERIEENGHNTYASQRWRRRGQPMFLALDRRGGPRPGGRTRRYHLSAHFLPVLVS
rRNA inh HTS: selective bacterial rRNA inhibition in E. coli; GFP signal change (wild-type ribosome), % (no concentration beside the values); AID 720706; E. coli WT GFP vs humanized-ribosome RFP mutants, fluorescence, 24 h; active compounds read low; DMSO median 0, no signal -100; 1.6% of 350,000 active;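 active = significant combined selectivity score with lowered wild-type GFP, culture density cut under 30%, mutant RFP and density less affected; inactive = any of these conditions unmet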; note: one replicate is shown; some compounds called inactive have numbers as strong as hits
Calb FLC: C. albicans growth modulation with fluconazole; C. albicans CaCi-2 (fluconazole-resistant clinical isolate) + fluconazole, Alamar Blue growth, 48 h; growth inhibition, % (test concentration not listed); 0.57% of 300,000 active; AID 1979;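 active = most replicates above 75%; inconclusive = exactly half above 75%; inactive = most below 75%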;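 note: all wells also contain fluconazole at 8 µg/ml as a sub-toxic cotreatment; 0% = median of DMSO wells and 100% = median of geldanamycin control wells; wells of about 8 µL received 7.5 nL stock; the first replicate is given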
ALR H2O2 inh: human ALR oxidase inhibition via reduced H2O2. P55789. 3.8% of 290,000 active. AID 485317. inhibition, % (no concentration beside the values). purified ALR, DTT oxidation, H2O2 HRP-luminol luminescence;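 active = mean and each replicate at 75% or more; inconclusive = only one of the two met; inactive = neither met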;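 note: stock transfer was 7.5 nL into about 7.5 µL; 0% = neutral wells and 100% = wells with inactivated enzyme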
Target sequence (P55789 whole entry, looked up): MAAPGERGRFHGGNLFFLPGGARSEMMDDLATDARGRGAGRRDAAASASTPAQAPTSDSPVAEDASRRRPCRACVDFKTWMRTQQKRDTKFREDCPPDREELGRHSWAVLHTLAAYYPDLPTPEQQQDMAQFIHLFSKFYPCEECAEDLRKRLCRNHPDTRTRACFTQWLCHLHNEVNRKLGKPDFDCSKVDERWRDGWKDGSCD
T cruzi inh: blocks replication of Trypanosoma cruzi; T. cruzi beta-gal in NIH3T3, luminescence, 90 h; inhibition, % (test concentration not listed); 1.4% of 300,000 active;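 active = mean inhibition across valid replicates above about 55%, limit read from the data; inconclusive = mean below that limit but half or more replicates reach it; inactive = mean below it, under half of replicates reach it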;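 note: signal also drops with host cell toxicity which is not excluded here; 0% = plate median of DMSO wells and 100% = zero luminescence signal; higher percent means less beta-gal luminescence so fewer parasites; stock transfer was 50 nL into about 50 µL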
AF4-AF9 inh: MLL-AF4/AF9 protein interaction inhibition | AlphaScreen, biotin-AF4 peptide binding to FLAG-AF9 | inhibition, % at 10 µM | 0.47% of 350,000 active | P42568;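 active = every replicate reaching a set inhibition limit, whatever the replicate mean, cut at about 25% in these data; inconclusive = mean inhibition reaches that limit but some replicates miss it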;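 note: 0% = plate neutral control median and 100% = total signal loss; the record names both 10 and 1 µM as test concentration; the first replicate is given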
Target sequence (P42568 whole entry, looked up): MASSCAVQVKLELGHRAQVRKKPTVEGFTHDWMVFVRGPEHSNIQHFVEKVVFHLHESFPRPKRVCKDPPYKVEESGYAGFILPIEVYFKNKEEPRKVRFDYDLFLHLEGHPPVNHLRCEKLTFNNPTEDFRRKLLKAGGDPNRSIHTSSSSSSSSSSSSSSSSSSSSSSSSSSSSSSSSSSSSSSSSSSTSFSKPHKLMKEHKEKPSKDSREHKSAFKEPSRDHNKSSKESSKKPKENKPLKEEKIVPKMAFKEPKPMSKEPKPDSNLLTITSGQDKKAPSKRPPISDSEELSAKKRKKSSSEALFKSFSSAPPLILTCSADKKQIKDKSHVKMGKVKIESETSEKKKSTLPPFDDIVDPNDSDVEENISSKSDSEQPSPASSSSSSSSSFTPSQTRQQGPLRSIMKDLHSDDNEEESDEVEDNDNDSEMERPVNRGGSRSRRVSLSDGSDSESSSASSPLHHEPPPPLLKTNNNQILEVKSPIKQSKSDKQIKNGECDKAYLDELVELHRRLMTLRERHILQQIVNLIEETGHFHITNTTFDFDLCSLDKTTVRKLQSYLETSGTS
RanGTP-Impb inh: inhibitors of RanGTP-importin-beta interaction, primary screen, biochemical, FRET, CFP-Ran, YFP-importin-beta, homogeneous. inhibition, % (test concentration not listed). cell-free CFP-Ran/YFP-importin-beta FRET ratio. 1.1% of 300,000 active;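 active = most replicates above 15%; inconclusive = exactly half above 15%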;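 note: 0% = DMSO wells and 100% = Ran loaded with GDP instead of GTP; wells of about 40 µL received 100 nL stock; the first replicate is given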
Beta cell apopt: blocks beta cell apoptosis. INS-1E cytokine-induced death, ATP luminescence, 48 h; percent of positive-control rescue, neutral wells zero. 0.8% of 300,000 active. protection from apoptosis, % (concentration not given with the values);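 active = all replicates at 75% or more, or half of them and the mean; inconclusive = half reach 75% but not the mean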;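 note: 0% = cytokine-treated negative control wells and 100% = positive control rescue; higher means more ATP so stronger rescue from cytokine killing; wells of about 40 µL received 100 nL stock; the first replicate is given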
rRNA inh HTS OD600: further read-out of rRNA inh HTS, marked with its call; OD600 change, %; measured here: OD600 growth;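 optical density of the mix in the first replicate; 0 = DMSO median and -100 = no signal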
rRNA inh HTS RFP: recorded beside rRNA inh HTS, whose call it bears; RFP signal change, %; measured here: RFP humanized mutant strains;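 first replicate; 0 = DMSO median and -100 = no signal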
* hit, by the source's call.

`CCc1ccc(NC(=O)C2CCCN(S(=O)(=O)c3cccnc3)C2)cc1` (centres undefined) gave FGF22 binding inactive, rRNA inh HTS 2, Calb FLC 10, ALR H2O2 inh -7, T cruzi inh -10, AF4-AF9 inh -0.6, RanGTP-Impb inh 4.0, Beta cell apopt -6, rRNA inh HTS OD600 -3 and rRNA inh HTS RFP -2.7.
CCC1COCCS(=O)(=O)N1Cc1ccc(Cl)cc1 (centres undefined) was read as FGF22 binding inactive, rRNA inh HTS 0, Calb FLC 3, T cruzi inh -9, AF4-AF9 inh -7.4, RanGTP-Impb inh 3.2, Beta cell apopt -1, rRNA inh HTS OD600 -9 and rRNA inh HTS RFP -12.
`O=C(COC(=O)CNC(=O)c1cccc([N+](=O)[O-])c1)Nc1nc2ccccc2s1` gave Calb FLC -22, ALR H2O2 inh 38, T cruzi inh 6, RanGTP-Impb inh 5.6 and Beta cell apopt -5.
For S=C(CN1CCCC1=S)N1CCOCC1 the results were FGF22 binding inactive, Calb FLC -9, ALR H2O2 inh -2, AF4-AF9 inh -0.4 and RanGTP-Impb inh 0.4.
For COc1ccc(C(=O)CSc2nnc(C(CO)NC(=O)c3ccc(OC)cc3)n2C)cc1 (centres undefined) the results were Calb FLC -8, ALR H2O2 inh 2, RanGTP-Impb inh -1.3 and Beta cell apopt 0.
COc1ccc(Cl)cc1NC(=S)N1CC(C)OC(C)C1 (centres undefined) was read as FGF22 binding inactive, rRNA inh HTS 18, Calb FLC 0, ALR H2O2 inh -37, T cruzi inh -9, AF4-AF9 inh -1.3, RanGTP-Impb inh inconclusive, Beta cell apopt -8, rRNA inh HTS OD600 3 and rRNA inh HTS RFP -2.3.
Cc1ccc(NC2CCCN(C(=O)c3ccc4nccnc4c3)C2)cc1C (centres undefined) was read as FGF22 binding inactive, rRNA inh HTS 12, Calb FLC 11, ALR H2O2 inh 98*, T cruzi inh 17, AF4-AF9 inh 1.7, RanGTP-Impb inh -3.0, Beta cell apopt 0, rRNA inh HTS OD600 8 and rRNA inh HTS RFP 4.3.
CCCn1c(NCc2ccco2)nc2ccccc21 was read as FGF22 binding inactive, rRNA inh HTS 1, Calb FLC 16, ALR H2O2 inh 62, T cruzi inh -10, AF4-AF9 inh 3.1, RanGTP-Impb inh 3.3, Beta cell apopt 0, rRNA inh HTS OD600 -1 and rRNA inh HTS RFP -3.3.
`COC(=O)CSc1nnc(COc2ccc3ccccc3c2)o1` gave FGF22 binding inactive, rRNA inh HTS -8, Calb FLC 1, ALR H2O2 inh -18, T cruzi inh -1, AF4-AF9 inh -6.0, RanGTP-Impb inh 3.1, Beta cell apopt -7, rRNA inh HTS OD600 0 and rRNA inh HTS RFP -4.2.
Screening C=CCOc1cccc(C(=O)N(C)C2CCCN(Cc3ccccc3F)C2)c1 (centres undefined) returned FGF22 binding inactive, rRNA inh HTS -16, Calb FLC -1, T cruzi inh 23, AF4-AF9 inh 1.5, RanGTP-Impb inh -0.2, Beta cell apopt 3, rRNA inh HTS OD600 -11 and rRNA inh HTS RFP -4.3.
Screening O=C1c2ccccc2-c2nc3ccccc3nc21 returned Calb FLC -26, ALR H2O2 inh -13, T cruzi inh -3 and RanGTP-Impb inh 1.4.
Screening O=C(NC(=S)N1CCN(c2ccc(Cl)cc2[N+](=O)[O-])CC1)c1ccco1 returned Calb FLC -3, ALR H2O2 inh 14, T cruzi inh 15, RanGTP-Impb inh -0.5 and Beta cell apopt 1.
`Cc1c(C(=O)C(=O)NCCCn2ccnc2)c2ccccc2n1C` gave rRNA inh HTS 12, Calb FLC -20, ALR H2O2 inh -4, T cruzi inh -7, AF4-AF9 inh -0.8, RanGTP-Impb inh 1.7, Beta cell apopt -5, rRNA inh HTS OD600 0 and rRNA inh HTS RFP -1.6.
For COc1ccc(OC)c(N(C(=O)c2ccco2)C(C(=O)NC2CCCC2)c2ccc(N3CCOCC3)cc2)c1 (centres undefined) the results were FGF22 binding inactive, rRNA inh HTS 2, Calb FLC -2, ALR H2O2 inh 3, T cruzi inh -6, AF4-AF9 inh -5.8, RanGTP-Impb inh -4.2, Beta cell apopt -3, rRNA inh HTS OD600 9 and rRNA inh HTS RFP 1.2.
COc1ccc(N(Cc2ccccc2)S(=O)(=O)c2cccc(C(=O)Nc3ccccn3)c2)cc1 was read as FGF22 binding inactive, ALR H2O2 inh -10, AF4-AF9 inh -0.9 and Beta cell apopt 6.
CN(CC(=O)Nc1ccc(Cl)c(Cl)c1)C(=O)CN1C(=O)NC2(CCCC2)C1=O was read as FGF22 binding inactive, rRNA inh HTS -7, ALR H2O2 inh 0, T cruzi inh 1, AF4-AF9 inh -16, RanGTP-Impb inh -1.8, Beta cell apopt -1, rRNA inh HTS OD600 -6 and rRNA inh HTS RFP -0.6.
`O=C(NCc1ccc(CNC(=O)c2ccco2)cc1)c1ccco1` gave FGF22 binding inactive, rRNA inh HTS -3, Calb FLC -2, ALR H2O2 inh -1, T cruzi inh -2, AF4-AF9 inh -0.9, RanGTP-Impb inh 0.3, Beta cell apopt -1, rRNA inh HTS OD600 -1 and rRNA inh HTS RFP -0.7.
C=CC[C@@H](CC(=O)NCCO)C(=O)N[C@H](COC(=O)[C@H](CC=C)CC(=O)OC(C)(C)C)Cc1c[nH]c2ccccc12 was read as FGF22 binding inactive, rRNA inh HTS -1, ALR H2O2 inh 1, AF4-AF9 inh 1.7, Beta cell apopt -3, rRNA inh HTS OD600 8 and rRNA inh HTS RFP -1.6.
`COc1ccc(OCC(=O)NNC(=O)c2cccc(C)c2)cc1` gave rRNA inh HTS 3, Calb FLC -16, T cruzi inh -17, AF4-AF9 inh -4.1, Beta cell apopt 0, rRNA inh HTS OD600 10 and rRNA inh HTS RFP -1.2.
Screening O=C(Nc1nccs1)[C@@H]1CCCN1C(=O)c1cccs1 returned rRNA inh HTS 17, Calb FLC -20, ALR H2O2 inh -31, T cruzi inh -13, AF4-AF9 inh -2.1, RanGTP-Impb inh -0.1, Beta cell apopt -1, rRNA inh HTS OD600 11 and rRNA inh HTS RFP -3.3.
`Cc1cccc(NC(=S)NCc2ccc3[nH]c4c(c3c2)CCCC4)c1` gave FGF22 binding inactive, rRNA inh HTS 19, Calb FLC -14, ALR H2O2 inh -35, T cruzi inh 7, AF4-AF9 inh -1.6, RanGTP-Impb inh 3.3, Beta cell apopt 3, rRNA inh HTS OD600 -16 and rRNA inh HTS RFP 7.7.
`CCc1ccccc1NC(=O)CSc1nc2n[nH]c(C)c2c(=N)n1-c1cccc(OC)c1` gave FGF22 binding inactive, rRNA inh HTS -39, Calb FLC -3, T cruzi inh 8, AF4-AF9 inh 1.4, RanGTP-Impb inh 1.6, rRNA inh HTS OD600 -51 and rRNA inh HTS RFP 14.
Screening O=[N+]([O-])c1ccc2c(c1)C(N1CCOCC1)/C(=C/COc1ccc(F)cc1)O2 (centres undefined) returned rRNA inh HTS -21, Calb FLC 7, ALR H2O2 inh 2, T cruzi inh 16, RanGTP-Impb inh 6.6, Beta cell apopt 0, rRNA inh HTS OD600 -20 and rRNA inh HTS RFP -2.8.
For Cc1ccc(C(=O)c2c3ccc([N+](=O)[O-])cc3[n+]([O-])n2CCCN)cc1 the results were FGF22 binding inactive, rRNA inh HTS -2, Calb FLC 50, ALR H2O2 inh -24, T cruzi inh 30, AF4-AF9 inh 10, RanGTP-Impb inh 2.7, Beta cell apopt 26, rRNA inh HTS OD600 -3 and rRNA inh HTS RFP 12.
O=C(CSc1nnc(NC(=O)c2ccc(S(=O)(=O)N3CCOCC3)cc2)s1)Nc1ccccc1C(F)(F)F was read as FGF22 binding inactive, rRNA inh HTS 16, Calb FLC -17, ALR H2O2 inh -54, T cruzi inh 13, AF4-AF9 inh -3.8, RanGTP-Impb inh 0.4, Beta cell apopt -5, rRNA inh HTS OD600 7 and rRNA inh HTS RFP -0.1.
For O=C(Nc1ccc2c(c1)OCCO2)c1cc2sccc2n1Cc1ccc(F)cc1 the results were Calb FLC 1, ALR H2O2 inh -6, T cruzi inh 33, RanGTP-Impb inh -2.5 and Beta cell apopt 10.
Screening CCN(C(=O)COC(=O)c1ccc(O)cc1)c1cccc2ccccc12 returned FGF22 binding inactive, rRNA inh HTS -25, ALR H2O2 inh -27, AF4-AF9 inh -2.7, Beta cell apopt -6, rRNA inh HTS OD600 -58 and rRNA inh HTS RFP -5.3.
CCn1c(COc2ccccc2C)nc2ccccc21 was read as Calb FLC 16, ALR H2O2 inh -6, T cruzi inh 16, RanGTP-Impb inh -0.3 and Beta cell apopt -1.
`CC(C)NC(=O)N1CCCN(c2nc3ccc(Cl)cc3s2)CC1` gave FGF22 binding inactive, rRNA inh HTS -24*, Calb FLC -4, ALR H2O2 inh -3, T cruzi inh 7, AF4-AF9 inh 4.6, RanGTP-Impb inh -1.7, Beta cell apopt -2, rRNA inh HTS OD600 -19* and rRNA inh HTS RFP -3.6*.
Screening Cc1nn(-c2ccccc2)c(N2CCCC2)c1/C=N/NC(=S)Nc1ccccc1C(F)(F)F returned FGF22 binding inactive, rRNA inh HTS 0, Calb FLC -9, ALR H2O2 inh -8, T cruzi inh 43, AF4-AF9 inh -18, RanGTP-Impb inh 0.5, Beta cell apopt 42, rRNA inh HTS OD600 11 and rRNA inh HTS RFP -3.3.
O=C(c1ccccc1-n1cccn1)N1CCc2c([nH]c3ccccc23)C1c1ccccn1 (centres undefined) was read as FGF22 binding inactive, rRNA inh HTS -18, Calb FLC 18, ALR H2O2 inh 1, T cruzi inh -18, AF4-AF9 inh 6.5, RanGTP-Impb inh 2.1, Beta cell apopt -4, rRNA inh HTS OD600 -24 and rRNA inh HTS RFP 1.0.
For COc1cccc2cc(C(=O)Nc3cc(Cl)ccc3N3CCOCC3)c(=O)oc12 the results were Calb FLC -20, ALR H2O2 inh 28, T cruzi inh 15 and RanGTP-Impb inh -0.7.
Screening C=CCOc1cccc(CNCc2cccnc2)c1 returned FGF22 binding inactive, rRNA inh HTS 12, Calb FLC 0, ALR H2O2 inh -10, T cruzi inh 17, AF4-AF9 inh 4.2, RanGTP-Impb inh 2.0, Beta cell apopt -6, rRNA inh HTS OD600 0 and rRNA inh HTS RFP 4.2.
For COc1ccc(C(=O)N2CCSCC2)cc1OC1CCN(C(C)=O)CC1 the results were FGF22 binding inactive, rRNA inh HTS -3, Calb FLC 9, ALR H2O2 inh 2, T cruzi inh -7, AF4-AF9 inh -1.6, RanGTP-Impb inh 2.6, Beta cell apopt 2, rRNA inh HTS OD600 5 and rRNA inh HTS RFP -2.0.
CC(=O)Nc1ccc(NC(=O)CSc2nnc(COc3ccccc3C)n2CC2CCCO2)cc1 (centres undefined) was read as FGF22 binding inactive, rRNA inh HTS -2, Calb FLC 1, ALR H2O2 inh -8, T cruzi inh 0, AF4-AF9 inh -13, RanGTP-Impb inh 0.9, Beta cell apopt 4, rRNA inh HTS OD600 -8 and rRNA inh HTS RFP -2.5.
COc1ccc(/C=C(/C#N)C(=O)Nc2cccnc2)cc1OC was read as Calb FLC 1, ALR H2O2 inh 1, T cruzi inh -3, RanGTP-Impb inh -0.7 and Beta cell apopt -3.

Only part of the results is shown; rates above refer to the full screens.
